PrP UTR inh: inhibition of PrP 5' UTR reporter expression. inhibition, % (test concentration not listed). cell-based PrP 5' UTR mRNA reporter, plate reader. 0.35% of 340,000 active. AID 488862;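 active = every replicate at 50% or more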;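 note: 0 = median of the neutral control wells; tested in H4 reporter cells; numbers are from one replicate; inactives centre near -14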
RN4220 kill: kills Staphylococcus aureus RN4220; inhibition, % (test concentration not listed); 0.33% of 330,000 active; S. aureus RN4220 growth, OD600, 16 h;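 active = z-score of -3 or lower and OD600 up to 0.18 on both plates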;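 note: plate controls were untreated cells for no effect and reference antibiotic for full effect; stock transfer was 100 nL into about 80 µL; one replicate is shown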
BJeLR lethal: kills HRASV12-expressing BJeLR cells | 0.17% of 300,000 active | inhibition, % (no concentration beside the values) | BJeLR (HRASV12) viability, CellTiter-Glo ATP luminescence, 48 h; reference of the scale not given here;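 active = replicate mean above 50%; inconclusive = above 50% but judged a plate artefact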;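 note: 50 nL library stock added to about 25 µL; numbers are from one replicate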
Autofluor counter: compound fluorescence in toxin protease inhibitor counterscreen; fluorescence intensity (no concentration beside the values); 3.1% of 360,000 active; compound autofluorescence counterscreen, microsphere flow cytometry; hits give high values;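 active = at least 3 SD above the mean of all compounds, about 16000 in these data; inconclusive = too few beads counted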;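 note: 100 nL of 1 mM stock went into each well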
ugtP null kill: compounds lethal to S. aureus RN4220 ugtP deletion mutant; growth inhibition, % (no concentration beside the values); OD600 growth, 16 h; some inactives read as strong as hits; AID 1259309; 0.54% of 330,000 active;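 active = z-score under -3 and OD600 up to 0.15 on both plates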;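 note: plate controls were untreated wells for no effect and antibiotic for full effect; wells of about 80 µL received 100 nL stock; the first replicate is given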
Mtb hypoxia rep: inhibitors of hypoxia-regulated fluorescent reporter in Mycobacterium tuberculosis | AID 1159583 | 0.1% of 300,000 active | fluorescence inhibition, % (concentration not given with the values) | M. tuberculosis hypoxia-regulated fluorescent reporter, fluorescence;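 active = 35 to 45% if threefold the growth effect, above 45% if 1.5-fold the growth effect; inactive = the rest, general growth blockers included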;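 note: wells of about 50 µL received 100 nL stock; 0% = vehicle wells and 100% = reference inhibitor wells; whole bacteria with a GFP reporter of the hypoxia response; strong numbers were not always called active; many hits fall short of the cut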
Mtb hypoxia rep growth: recorded beside Mtb hypoxia rep, whose call it bears; growth inhibition, %; measured here: M. tuberculosis growth (absorbance);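 0% = vehicle and 100% = reference antibiotic; read after six days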
* marks the source's active call; other numbers are inactive results; ? = inconclusive; nt = not tested or not shown.

SMILES	PrP UTR inh	RN4220 kill	BJeLR lethal	Autofluor counter	ugtP null kill	Mtb hypoxia rep	Mtb hypoxia rep growth
CCOC(=O)C1(CCOc2ccccc2)CCN(Cc2ccc(OC)c(O)c2)CC1	-14	-0.7	3	3609	0	2	14
CC(=O)Nc1c2c(nn1-c1ccccc1)CS(=O)C2 (configuration not stated)	-20	-0.3	-17	5824	1	4	7
Fc1ccc(NN=C2CCSc3sccc32)c(F)c1	nt	6.7	nt	nt	5	12	9
Cc1ccc(C2NC(=O)c3c(sc4c3CCN(C)C4)N2)s1 (configuration not stated)	-71	3.6	8	5794	5	6	-7
CCOC(=O)C1=CNS(=O)(=O)NC1c1ccccc1 (configuration not stated)	-13	3.1	nt	3851	9	6	6
CCOc1ccc(C(=O)NCC(=O)NCCOc2ccc(C)cc2)cc1	-16	-2.4	-5	6239	2	7	7
O=C(NCC1CC1)Nc1ccc(Cl)cc1	-63	0.1	0	3482	1	13	7
CC(C)NCCCCOc1ccc(Br)cc1Cl	-11	7.8	2	2128	-2	8	3
Cc1ccc2nc(C)cc(C(=O)OCC(=O)Nc3cccnc3Cl)c2c1	-4	0.4	7	4133	-5	-5	13
CCOc1ccc(NC(=O)CSc2nnc(CCNC(=O)c3ccc(OC)cc3)n2CC)cc1	3	5.6	nt	7776	2	2	2
NNc1nc2ccc(Cl)cc2s1	-28	4.4	-1	2261	3	11	3
CCCCNC(=O)CCCCC(=O)N/N=C/c1ccccc1Cl	-5	nt	3	2067	nt	nt	nt
CCOC(=O)c1cc(NC(=O)c2cc(C)on2)cc(C(=O)OCC)c1	9	3.2	nt	11086	0	13	14
CCN1CCN(c2ccc(S(=O)(=O)N3CCCCC3)cc2NC(=O)c2cccc(C)c2[N+](=O)[O-])CC1	-6	2.7	-7	4219	10	1	1
COc1ccc(CN2CCNC(=O)C2CC(=O)NCCN2CCCCC2=O)c(F)c1 (configuration not stated)	-2	-0.3	-9	4332	-3	4	1
NC(=O)C1CCN(C(=O)C2CCN(C(=O)Nc3ccccc3)CC2)CC1	-6	1.6	nt	5622	3	-4	3
C/C(=N\NC(=O)c1ccc(O)cc1O)c1cccnc1	-3	nt	4	5496	nt	nt	nt
CC(C)C(=O)N1CCN(c2nc(-c3ccccc3)c3c(c2C#N)CC(C)(C)OC3)CC1	-1	15	-2	2307	20	-4	-1
Cn1nc(N)c2c1N=P(N1CCOCC1)(N1CCOCC1)N=C2c1ccccc1	-22	1.4	0	7681	1	0	4
Cc1ccc2c3c([nH]c2c1)C(=O)CC(C)(C)S3	5	4.2	-11	4526	-7	4	5
Nc1c(-c2ccc(F)cc2)cnc2ncnn12	-10	5.2	-2	6023	-1	-4	6
CCc1cc(=O)oc2cc(OCC(=O)NC3CC(C)(C)NC(C)(C)C3)ccc12	-4	4.8	5	6017	-7	7	-1
COc1ccccc1N(C)S(=O)(=O)c1ccc(Cl)c(C(=O)NNC(=O)c2ccccc2O)c1	-29	21	4	5098	8	8	3
O=S(=O)(c1ccc(F)c(F)c1F)N1CCN(C(=S)Nc2ccccc2)CC1	-12	4.9	9	3073	7	-7	2

Continued, overlapping the part above by five compounds.
SMILES	PrP UTR inh	RN4220 kill	BJeLR lethal	Autofluor counter	ugtP null kill	Mtb hypoxia rep	Mtb hypoxia rep growth
Cc1ccc2c3c([nH]c2c1)C(=O)CC(C)(C)S3	5	4.2	-11	4526	-7	4	5
Nc1c(-c2ccc(F)cc2)cnc2ncnn12	-10	5.2	-2	6023	-1	-4	6
CCc1cc(=O)oc2cc(OCC(=O)NC3CC(C)(C)NC(C)(C)C3)ccc12	-4	4.8	5	6017	-7	7	-1
COc1ccccc1N(C)S(=O)(=O)c1ccc(Cl)c(C(=O)NNC(=O)c2ccccc2O)c1	-29	21	4	5098	8	8	3
O=S(=O)(c1ccc(F)c(F)c1F)N1CCN(C(=S)Nc2ccccc2)CC1	-12	4.9	9	3073	7	-7	2
COc1ccc(CC2(c3ccccc3)NC(=O)NC2=O)cc1 (configuration not stated)	-9	4.8	nt	2809	5	16	8
Cc1csc(NC(=O)/C=C/c2ccc3c(c2)OCO3)n1	-62	-2.0	-5	2101	7	7	4
COc1ccc(-c2cc(C(=O)N3CCCC3)c3ccccc3n2)cc1OC	-3	-0.5	-2	4937	-2	1	4
CCc1cc2c(NCc3ccco3)ncnc2s1	-7	1.1	8	3162	-10	3	-2
O=C(C1CCN(c2ncnc3c2nc2n3CCCCC2)CC1)N1CCN(c2ccccc2F)CC1	-40	2.5	5	5483	9	12	6
CCOc1cccc(C(=O)Nc2ccccc2C(=O)N2CCN(C)CC2)c1	-10	-0.8	-4	?	-4	0	-2
O=C(Nc1ccc(Cl)cc1)N1CCC(c2nc(-c3ccc(F)cc3)no2)CC1	2	-3.2	6	24171*	-22	6	9
CCOc1ccc2nc(NCCNS(=O)(=O)c3ccccc3)c(C#N)cc2c1	-22	4.1	10	?	3	18	3
Cc1cccc(C)c1NC(=S)N(Cc1ccco1)C1CCN(C(C)C)CC1	-94	2.3	5	2733	-1	7	5
CCS(=O)(=O)N1CCC(C(=O)Oc2ccccc2)CC1	-22	2.6	-3	4002	8	14	2
CCN(CC)C(=O)CN1C(=O)C2CC=C(Cl)CC2C1=O (configuration not stated)	-40	nt	-10	8098	nt	nt	nt
O=c1oc2ccccc2c(NC2CCCCC2)c1NS(=O)(=O)c1ccc(F)c(Cl)c1	-9	7.0	6	6073	-5	14	5

Profiles, looked up by structure. Values in the order: PrP UTR inh, RN4220 kill, BJeLR lethal, Autofluor counter, ugtP null kill, Mtb hypoxia rep, Mtb hypoxia rep growth
COc1ccc(CC2(c3ccccc3)NC(=O)NC2=O)cc1 (configuration not stated) across the screens: -9, 4.8, nt, 2809, 5, 16, 8
O=C(C1CCN(c2ncnc3c2nc2n3CCCCC2)CC1)N1CCN(c2ccccc2F)CC1 across the screens: -40, 2.5, 5, 5483, 9, 12, 6
CCOc1ccc2nc(NCCNS(=O)(=O)c3ccccc3)c(C#N)cc2c1 across the screens: -22, 4.1, 10, ?, 3, 18, 3

(cont.)
SMILES	PrP UTR inh	RN4220 kill	BJeLR lethal	Autofluor counter	ugtP null kill	Mtb hypoxia rep	Mtb hypoxia rep growth
Cc1cc(C)c(C)c(S(=O)(=O)N2CCN(C(=O)CCc3nc4ccccc4c(=O)[nH]3)CC2)c1C	-9	1.9	3	6232	3	-2	5
CC(C)(C)c1ccc(C(=O)NC(=S)NCC2CCCO2)cc1 (configuration not stated)	-16	3.0	7	2629	4	3	4
O=C(NCc1ccccc1)[C@H]1C[C@@H]1[C@H](NP(=O)(c1ccccc1)c1ccccc1)c1ccccc1	-30	nt	-11	4020	nt	nt	nt
CS(=O)(=O)N(CC(=O)NC1CCCC1)c1ccc(Oc2ccccc2)cc1	-33	-0.6	-1	4954	2	3	8
CC1CCC(NS(=O)(=O)c2ccc3c(c2)CC(=O)N3)CC1 (configuration not stated)	-5	2.2	0	6003	6	14	12
COc1ccccc1N1CCN(C(c2ccc(C)cc2)c2nnnn2C(C)C)CC1 (configuration not stated)	-7	0.6	-6	2553	9	nt	nt
C/C(C=NNC(=O)CN1CCN(Cc2ccc(Cl)cc2)CC1)=C\c1ccco1	nt	1.2	nt	nt	-1	6	7
Cc1ccc(N(CC(O)Cn2c3ccccc3c3ccccc32)S(C)(=O)=O)c(C)c1 (configuration not stated)	-14	-2.1	4	9639	-29	-5	-5
CCOC(=O)C1=C(C)Nc2sc(C(=O)c3ccc(F)cc3)c(N)c2C1c1ccc(C(=O)OC)cc1 (configuration not stated)	6	-5.9	-5	2678	23	0	12
COc1cc(C(=S)N2CCOCC2)cc(OC)c1OC(=O)Cc1ccccc1	-43	4.6	-11	3987	11	17	4
COc1ccccc1C(=O)Nc1nnc(S(=O)(=O)N2CCCCC2)s1	-5	11	6	5116	5	5	-2
Cc1cc(C(=O)N/N=C/c2ccccn2)n[nH]1	-28	nt	1	2108	nt	nt	nt
CC1CCN(CCCN2C(=O)C3C(C(=O)Nc4ccc(Cl)cc4)C4C=CC3(O4)C2C(=O)NC2CCCCC2)CC1 (configuration not stated)	-14	2.0	3	4786	4	-3	-18
CCCC(=O)c1cc(-c2nc3ccccc3n2C)n(C)c1	-8	0.0	6	3472	4	nt	nt
Nc1ccccc1C(=O)Nc1cccc(C(=O)O)c1	-2	3.3	17	5597	6	7	-2
O=C1CCC(/C=C/c2ccccc2)=NN1Cc1ccc(F)cc1	-14	1.7	7	2533	2	2	9
COc1ccc(-c2noc(CN(C)S(=O)(=O)c3ccc(Cl)cc3)n2)cc1OC	2	5.1	-6	7996	-2	8	6
CCOc1cc2c(cc1OCC)C(c1ccc(F)cc1)NCC2 (configuration not stated)	-36	4.4	0	6064	3	11	-1
CCC(CC)C(=O)Nc1nnc(S(=O)(=O)Nc2ccccc2C)s1	-21	73	3	3641	51	1	-1
O=C(NCc1ccccc1)c1nc[nH]c1C(=O)NCc1ccccc1	-9	7.5	0	3080	-5	11	2
NC(=O)c1nsc(C(=O)N(Cc2ccco2)C(C(=O)NCC2CCCO2)c2ccc(F)cc2)c1N (configuration not stated)	-26	3.7	-5	4090	10	2	-1
CCSc1nnc(-c2cccc(S(=O)(=O)N(CC)CC)c2)n1Cc1ccccc1	7	-0.6	19	16031	-12	-8	14
C=CCN1C(=O)C(Cc2ccc(F)cc2)SC1=NN=Cc1ccco1 (configuration not stated)	nt	0.5	nt	nt	5	13	6
CCN(CC)c1ccc(C=N/C(C#N)=C(\N)C#N)cc1	-75	nt	2	17577*	nt	nt	nt

Brought forward from above: five compounds; new compounds follow.
SMILES	PrP UTR inh	RN4220 kill	BJeLR lethal	Autofluor counter	ugtP null kill	Mtb hypoxia rep	Mtb hypoxia rep growth
O=C(NCc1ccccc1)c1nc[nH]c1C(=O)NCc1ccccc1	-9	7.5	0	3080	-5	11	2
NC(=O)c1nsc(C(=O)N(Cc2ccco2)C(C(=O)NCC2CCCO2)c2ccc(F)cc2)c1N (configuration not stated)	-26	3.7	-5	4090	10	2	-1
CCSc1nnc(-c2cccc(S(=O)(=O)N(CC)CC)c2)n1Cc1ccccc1	7	-0.6	19	16031	-12	-8	14
C=CCN1C(=O)C(Cc2ccc(F)cc2)SC1=NN=Cc1ccco1 (configuration not stated)	nt	0.5	nt	nt	5	13	6
CCN(CC)c1ccc(C=N/C(C#N)=C(\N)C#N)cc1	-75	nt	2	17577*	nt	nt	nt
Cc1ccc(S(=O)(=O)Nc2c(C)n(C)n(-c3ccccc3)c2=O)cc1C(=O)NCc1ccco1	5	3.0	nt	2722	-1	0	4
CC(C)(C)C(=O)Nc1cc2c3c(c1)CCN3C(=O)CC2	-4	1.8	4	6035	3	-5	2
O=C(CNC(=O)c1cccc(Br)c1)N/N=C/c1ccc2c(c1)OCO2	-37	nt	-16	3151	nt	nt	nt
Nc1nonc1-n1nnc(C(=O)N/N=C/c2ccc(Cl)cc2Cl)c1CN1CCCCC1	-2	nt	2	3875	nt	nt	nt
CC(Sc1nnc2c(n1)C1CCC2(C)C1(C)C)C(=O)Nc1ccccc1 (configuration not stated)	-1	1.3	6	2097	5	11	5
CCSc1nnc([C@H](Cc2ccccc2)NC(=O)OC(C)(C)C)o1	-9	3.2	-4	23861*	-4	6	5
O=C(Nc1cccnc1)c1ccc(Cl)c(Cl)c1	-16	-1.3	-1	3743	-5	-2	2
